Assay outcomes from PubChem BioAssay.
hNpr1 antagonist: human Npr1 receptor antagonism; P16066; 76,000 compounds, 1.6% hits; Potency, µM (series often up to 46.3 µM), for the others: at the highest dose activity change, negative = inhibition, most hits filed as inhibitors; HEK293 hNpr1 GloSensor cGMP, ANP-stimulated luminescence; AID 1347048; active = well fitted inhibition curve with a large enough effect; inconclusive = small, poorly fitted or top-dose-only effect; inactive = no such curve, though single readings can be large or run the other way;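 also: nearly all actives have a fitted effect of over 60% in size; nearly all hits also lower the signal before the agonist is added; a reference antagonist and vehicle were the controls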
Target sequence (P16066 whole entry, looked up): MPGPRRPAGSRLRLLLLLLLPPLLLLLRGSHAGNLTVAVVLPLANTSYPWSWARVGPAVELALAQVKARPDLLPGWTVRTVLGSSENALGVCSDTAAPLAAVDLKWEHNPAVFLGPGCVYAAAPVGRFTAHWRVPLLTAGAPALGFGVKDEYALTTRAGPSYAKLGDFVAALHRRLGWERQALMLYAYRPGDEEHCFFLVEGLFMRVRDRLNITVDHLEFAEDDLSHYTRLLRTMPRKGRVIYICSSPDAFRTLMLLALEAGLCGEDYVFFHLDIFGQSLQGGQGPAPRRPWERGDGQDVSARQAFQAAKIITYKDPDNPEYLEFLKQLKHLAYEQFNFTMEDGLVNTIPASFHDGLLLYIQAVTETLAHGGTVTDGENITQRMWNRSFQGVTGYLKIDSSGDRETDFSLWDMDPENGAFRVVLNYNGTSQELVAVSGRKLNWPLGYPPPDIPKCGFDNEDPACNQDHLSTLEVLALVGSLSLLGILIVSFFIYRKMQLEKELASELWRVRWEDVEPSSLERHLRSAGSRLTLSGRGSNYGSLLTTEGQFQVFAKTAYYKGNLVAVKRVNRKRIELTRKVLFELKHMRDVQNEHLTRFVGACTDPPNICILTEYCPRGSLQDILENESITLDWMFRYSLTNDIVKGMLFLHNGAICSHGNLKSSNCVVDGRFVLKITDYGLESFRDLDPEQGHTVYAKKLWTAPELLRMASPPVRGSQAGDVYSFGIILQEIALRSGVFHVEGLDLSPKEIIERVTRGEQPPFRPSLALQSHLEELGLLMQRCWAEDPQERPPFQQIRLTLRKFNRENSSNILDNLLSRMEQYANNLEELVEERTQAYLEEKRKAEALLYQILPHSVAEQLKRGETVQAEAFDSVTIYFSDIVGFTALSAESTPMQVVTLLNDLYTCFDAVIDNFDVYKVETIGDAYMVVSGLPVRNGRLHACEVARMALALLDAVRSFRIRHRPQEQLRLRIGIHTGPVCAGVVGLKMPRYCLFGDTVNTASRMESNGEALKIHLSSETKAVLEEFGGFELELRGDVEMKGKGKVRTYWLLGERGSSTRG
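Compound pre-incubated 30 min at room temperature on GloSensor-loaded HEK293 cells stably carrying hNpr1 and the pGS-40F cGMP biosensor. Stimulation uses hNppA at 0.1 nM final; luminescence is taken at baseline and 20 min post-agonist.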
Active calls of the source: *; u = inconclusive; [ ] = dose if it differs, or a comment. % is scaled to controls: 0 for no effect and ±100 for the full control effect; potency is read from the fitted curve at half-maximal effect.

hNpr1 antagonist	Structure
12%	O=C(NCCc1ccc(F)cc1)C1CCCN1c1nc2ncccc2o1 (configuration not stated)
3%	COc1ccc(/C=C/CN2CCN(Cc3ccccc3)CC(O)C2)cc1 (configuration not stated)
11µM*	Cc1ccc(C(=O)N2CCC3(CC2)CC(N(Cc2ccccc2)C2CC2)CCO3)cc1F (configuration not stated)
2%	CCOc1ccccc1NC(=O)N1CC[C@@H](c2ccc3c(c2)OCO3)[C@H](O)C1
-7%	Cc1cnc(C2CCN(C(=O)Nc3ccccc3F)C2)n1C(C)C (configuration not stated)
1%	CCNC(=O)N(C1CC1)C1CCOC2(CCN(C(=O)Cc3ccccc3F)CC2)C1 (configuration not stated)
-2%	COc1ccc(Cl)cc1NC(=O)N1CCC(OC2CCN(S(C)(=O)=O)CC2)CC1
3%	CN1C(=O)CCC2(CNC(=O)C3CCCC3)CCC=C12 (configuration not stated)
0%	CC(C)CCN1CCC2(CC1)CN[S+](=O)([O-])c1ccccc1N2
-1%	CCn1nccc1C(=O)N1CCC2(CCCCO2)CC1
-4%[70.6 µM]	CS(=O)(=O)c1ccc(O[C@H]2COCCN(Cc3cccc4c3OCO4)C2)cc1
2%	O=C(COc1ccc(F)cc1)N1CCC2(CC1)NC(=O)N(c1ccc(F)cc1)N2
1%	COCCn1nc2n(c1=O)CCN(C(=O)c1ccco1)CC2
-2%[70.6 µM]	COc1ccc([C@H]2C[C@@H](O)[C@@H](O)[C@@H]2NC(=O)C2CCC2)cc1
0%	Cc1nc(N2CCC(NC(=O)c3cnccn3)CC2)cc(C(F)(F)F)n1
4%	CCC(C)N1CCN(C(=O)CCc2ccc3c(c2)CN(C(=O)NC(C)C)CCO3)CC1 (configuration not stated)
-10%	CCOc1ccc(NC(=O)CCn2ccn3nc4c(c3c2=O)CCCC4)cc1
-2%	COc1ccc(CNC(=O)C[C@@H]2CCNC[C@@H]2Cc2cc(-c3ccccc3)on2)cc1OC
2%[70.6 µM]	O=C1Nc2ccc(-c3ccccc3)cc2C(=O)N2CCN(C(=O)NC3CCCCC3)C[C@H]12
-18%	Cc1cn2nc(C(=O)NC(C)c3ccccc3)cc2c(N2CCSCC2)n1 (configuration not stated)
8%	CC(C)N1CCC(C(=O)NC(CCn2ccnc2)c2ccccc2)CC1 (configuration not stated)
6%	O=C1NCCCCCN(C(=O)CC2CCCCC2)[C@H]2CCCC[C@@H]12
-7%[70.6 µM]	O=C(NC[C@H]1O[C@@H](CC(=O)N2CCN(c3ccc(F)cc3)CC2)[C@H](O)[C@@H]1O)C1CC1
-5%	COc1ccc(-c2ccnc(N[C@H]3CO[C@H]4[C@@H]3OC[C@@H]4NC(=O)Nc3cccc(C(F)(F)F)c3)n2)cc1
14µM*	O=C(N1CCCC(n2cc(-c3nc(-c4ccccc4)no3)nn2)C1)C1(c2ccccc2)CC1 (configuration not stated)
-1%[70.6 µM]	CN(Cc1ccccc1C(F)(F)F)Cc1ccnn1C
-8%	COc1ccc(C(=O)N2CCCCCCNC(=O)[C@@H]3C[C@@H](c4nc(C(C)C)no4)C[C@@H]32)cn1
0%	COc1ccc(CNC(=O)N2CCC(Cc3ncc(C)n3C(C)C)C2)cc1 (configuration not stated)
2%	C[C@]1(O)CCN(C(=O)Cc2ccc3c(c2)OCO3)C[C@@H]1O
-3%	COC1CN(c2ccc(C)cc2)C12CCN(C(=O)Cc1cccc(F)c1)CC2 (configuration not stated)

Next results:
hNpr1 antagonist	Structure
5%	Cc1cccc(NC(=O)CN2C(=O)NC3(CCC(C)CC3)C2=O)c1C (configuration not stated)
-6%	COCCNC(=O)C1Cn2cccc2C(=O)N1Cc1ccccc1 (configuration not stated)
-18%	COc1cccc(N2CCN(C(=O)CCc3conc3-c3ccccc3)CC2)c1
3%	Cc1ccsc1CN1CC(Oc2ccccc2C(=O)NC2CC2)C1
-6%	Cc1cccc(N2CCN(C(=O)CCc3conc3-c3ccccc3)CC2)c1C
u	CNC(=O)c1cccc(-c2cnc(Nc3cccnc3OC)c3c2CCO3)c1
-28%	CCc1ccc(CNC(=O)c2cc3n(n2)CC(c2ccc4c(c2)OCO4)OC3)cc1 (configuration not stated)
5%[70.6 µM]	CC(C)N1CC[C@H](c2nc3ccc(C(F)(F)F)cc3[nH]2)C1
2%[70.6 µM]	CCN(CC)C(=O)[C@@H]1CCC[C@@H](NCc2ccc(F)cc2)CN(C)C(=O)C1
2%	Cc1noc(-c2nc(-c3ccncc3)no2)n1
0%	CN(Cc1ccccc1)C1CCOC2(CCN(S(=O)(=O)c3ccc(F)cc3)CC2)C1 (configuration not stated)
-2%	CC(C)c1nnc(NC(=O)C2CC(=O)N(c3n[nH]c4cccc(F)c34)C2)s1 (configuration not stated)
1%	C[C@H]1[C@@H]2[C@@H](O)C([C@H](C)C(=O)NCc3cccs3)CC[C@@]2(C)CC[C@@H]1NC(=O)Cc1ccccc1 (some centres not stated)
-5%	COc1ccc(CN2C(=O)CO[C@H](c3ccc(NC(=O)c4cccs4)cc3)[C@H]2CO)cc1
u	O=C(c1ccc2[nH]ccc2c1)N1CCN(c2cc(-c3ccccc3)[nH]n2)CC1
2%	CCN1CCN(C(=O)C2CCCN(Cc3ccncc3)CCC(=O)NCC2)CC1 (configuration not stated)
0%	O=C(NCCCc1ccccc1)C1(CCO)CCN(c2ncccn2)C1 (configuration not stated)
2%[70.6 µM]	Cc1nn2c(c1-c1ccccc1Oc1ccccc1)N(C(=O)c1cnccn1)CCC2
0%	Cc1ccc(C(=O)N2CCC3(CC2)NC(=O)N(c2cccc(F)c2)N3)cc1
-6%	Cc1cc(C(=O)N2CCCC(C(=O)Nc3cccc(-c4cc5ccccc5[nH]4)c3)C2)nn1C (configuration not stated)
-1%	COC(=O)[C@H](NC(=O)[C@@H]1[C@@H](NC(=O)Nc2ccc(F)cc2F)CCN1C(=O)CSC)C(C)C
5%	COC(=O)[C@H](NC(=O)[C@@H]1C[C@H](NC(=O)NC2CCCCC2)CN1C(=O)CSC)C(C)C
0%[70.6 µM]	COC(=O)[C@@H]1Cc2c([nH]c3ccccc23)[C@H]2C[C@@H](NC(C)C)C[C@@H](c3ccc(C)cc3)N21
3%	N#Cc1cccc(NC(=O)Cn2nc3n(c2=O)CCCC3)c1
5%	Cc1nc(CC2CCN(C(=O)CCc3cc4n(n3)CCCNC4)CC2)no1
11%	COCCn1c(C)cnc1CC1CCCN(C(=O)c2ccccn2)C1 (configuration not stated)
15%	Cc1n[nH]c(C)c1C(N)C(=O)NCCc1cccc(C(F)(F)F)c1 (configuration not stated)
0%	O=C1CCC2(CCCO2)CCN1Cc1ccc(C(F)(F)F)c(F)c1 (configuration not stated)
6%	Cn1cnc(S(=O)(=O)N2CCC(N3CC(OCC4CC4)C34CCOCC4)CC2)c1 (configuration not stated)
2%	COc1ccc(NC(=O)N2CCc3nc(-c4cccc(F)c4)[nH]c3C2)cc1

Rewritten with bars between the fields: part of the list above.
SMILES | hNpr1 antagonist
Cc1cccc(NC(=O)CN2C(=O)NC3(CCC(C)CC3)C2=O)c1C (configuration not stated) | 5%
COCCNC(=O)C1Cn2cccc2C(=O)N1Cc1ccccc1 (configuration not stated) | -6%
COc1cccc(N2CCN(C(=O)CCc3conc3-c3ccccc3)CC2)c1 | -18%
Cc1ccsc1CN1CC(Oc2ccccc2C(=O)NC2CC2)C1 | 3%
Cc1cccc(N2CCN(C(=O)CCc3conc3-c3ccccc3)CC2)c1C | -6%
CNC(=O)c1cccc(-c2cnc(Nc3cccnc3OC)c3c2CCO3)c1 | u
CCc1ccc(CNC(=O)c2cc3n(n2)CC(c2ccc4c(c2)OCO4)OC3)cc1 (configuration not stated) | -28%
CC(C)N1CC[C@H](c2nc3ccc(C(F)(F)F)cc3[nH]2)C1 | 5%[70.6 µM]
CCN(CC)C(=O)[C@@H]1CCC[C@@H](NCc2ccc(F)cc2)CN(C)C(=O)C1 | 2%[70.6 µM]
Cc1noc(-c2nc(-c3ccncc3)no2)n1 | 2%
CN(Cc1ccccc1)C1CCOC2(CCN(S(=O)(=O)c3ccc(F)cc3)CC2)C1 (configuration not stated) | 0%
CC(C)c1nnc(NC(=O)C2CC(=O)N(c3n[nH]c4cccc(F)c34)C2)s1 (configuration not stated) | -2%
C[C@H]1[C@@H]2[C@@H](O)C([C@H](C)C(=O)NCc3cccs3)CC[C@@]2(C)CC[C@@H]1NC(=O)Cc1ccccc1 (some centres not stated) | 1%

The listing continues.
hNpr1 antagonist	Structure
1%	COc1ccc(S(=O)(=O)N2[C@@H]3CC[C@H]2CC(NC(=O)c2ccncc2)C3)cc1 (some centres not stated)
u	O=C(Cc1c(F)cccc1Cl)N1CCC(c2noc(COc3ccc(F)cc3)n2)CC1
6%	CCOc1ccccc1C(=O)N1CCN(C2CCN(C)C2=O)CC1 (configuration not stated)
-16%	Cc1occc1C(=O)N1C[C@@H](COCC2CC2)[C@H](c2ccccn2)C1
0%	Cc1ncoc1C(=O)N1CCC(N2CCCC(C(=O)N3CCCC3)C2)CC1 (configuration not stated)
-10%	O=S(=O)(c1ccc(F)c(Cl)c1)N1CCC(n2cnnc2C2CC2)CC1
15%	COCC(=O)N[C@@H]1CN(Cc2ccncc2)C[C@H]1CN(C)C
20µM*	CC(C)c1ccc(CC(=O)N2CCCc3ncc(C(=O)Nc4ccccn4)cc32)cc1
-12%	COc1ccc(-c2noc([C@@H]3CCCN3C(=O)c3ccc(OC)c(F)c3)n2)cc1
0%[70.6 µM]	COc1ccccc1C(=O)Nc1ccc([C@@H](O)[C@H]2COCC(=O)N2CC(C)C)cc1
1%	CNS(=O)(=O)c1ccc(CCC(=O)N2CC[C@H]3CC[C@@H](C2)N3)cc1
-8%[70.6 µM]	Cc1cccc(CN2CCc3ncc(C(=O)NCCC(C)C)n3CC2)c1
-1%	Cc1cnc(C(=O)NC2C[C@H]3CC[C@@H](C2)N3C(=O)c2ccsc2)cn1 (some centres not stated)
u	COc1ccccc1-c1[nH]nc2ncc(C(=O)N3CCC(c4ccccc4)CC3)nc12
7%	COc1ccc(C(=O)N[C@@H]2CCC[C@@H]2C(=O)NCc2ccc(C)c(C)c2)cc1
-2%	O=C1c2c(nc(CNCc3cccc(Cl)c3)n2Cc2ccccc2)NCCN1CC1CC1
-15%	CC(=O)NCCC(=O)N1CCCC1C(=O)Nc1cccc(-n2cccn2)c1 (configuration not stated)
u	CN1Cc2nc(OCc3ccc(F)cc3)ccc2OCC1=O
-2%[70.6 µM]	COc1cccc(-c2n[nH]c3c2CC(=O)N(Cc2ccccn2)C3)c1
-3%	O=C(NCCNc1cccnc1)C1CCC(=O)N(CCc2ccc(Cl)cc2)C1 (configuration not stated)
3%[70.6 µM]	C[C@@H](NC(=O)C1=C[C@@H](NC(=O)CC(C)(C)C)[C@@H](O)[C@H](O)C1)C(N)=O
12%	CCn1nc(C)cc1C(=O)N[C@@H]1c2ccccc2C2(CCNCC2)[C@H]1OC
5%	O=C(NC1CCc2n[nH]c(=O)n2CC1)c1ccc2nc[nH]c2c1 (configuration not stated)
-1%	CC(C)NC(=O)Cn1nc2c(cc1=O)CCCCC2
1%	C=CCC1(C(=O)O)CCCN(Cc2cc(Cl)ccc2OCC(=O)O)C1 (configuration not stated)
-2%	CN(CC1CCOCC1)C(=O)c1ccc(Cl)cc1
-13%	CCc1nncn1C1CCN(S(=O)(=O)c2ccc(C)cc2C)CC1
-2%	COc1cccc(CCC2CCCN(C(=O)c3ccoc3C)C2)c1 (configuration not stated)
5%	CCC(O)C(=O)N1CCC(c2[nH]ncc2-c2cccc(OC)c2)CC1 (configuration not stated)
2%	CN1C(=O)N(C)C2(CCN(c3cc(C4CC(O)C4)ncn3)CC2)C1=O (configuration not stated)

2 compounds drawn at random from those above:
hNpr1 antagonist	Structure
-2%	CN(CC1CCOCC1)C(=O)c1ccc(Cl)cc1
15%	COCC(=O)N[C@@H]1CN(Cc2ccncc2)C[C@H]1CN(C)C

Further results follow.
hNpr1 antagonist	Structure
4%	O=S(=O)(c1cccnc1)N1CC(F)(F)C[C@H]1c1nc(C2CC2)no1
6%	COc1ccc(C[C@H](NC(=O)[C@@H]2C[C@@H](NC(=O)CSC)CCN2C(=O)CCC(=O)O)C(N)=O)cc1
4%	CCNC(=O)c1cccnc1OC1CCN(C(=O)c2ccc(C)c(F)c2)C1 (configuration not stated)
2%	CN(CCNc1nc(CCN)nc2ccccc12)S(C)(=O)=O
2%	COc1cccc(-c2nc(-c3nnn4c3COC(c3ccc(C)cc3)C4)no2)c1OC (configuration not stated)
u	Cc1n[nH]c(C)c1CNC(=O)c1ccc(CC2CCN(S(C)(=O)=O)CC2)cc1
u	Cc1ccc(OCc2nc(C3CCN(S(=O)(=O)Cc4ccccc4F)C3)no2)cc1 (configuration not stated)
7%[70.6 µM]	CC(=O)NC[C@@H]1C=C(C)[C@H](CC(=O)O)C[C@H]1C(C)C
8%	O=C(Cn1ncc2ccccc2c1=O)NC1CCCc2c1[nH]c1ccccc21 (configuration not stated)
-11%	O=C(NCCn1ccn2nc(-c3ccc(F)cc3)cc2c1=O)c1ccc2c(c1)OCO2
-16%	O=C(NCc1ccc(F)cc1Cl)c1cc2n(n1)CC(c1ccc3c(c1)OCO3)OC2 (configuration not stated)
0%	c1ccc(CN2CCC(Oc3nccnc3N3CCc4ccccc43)C2)nc1 (configuration not stated)
0%	O=C(O)C[C@@H]1CCN(C(=O)Nc2cccc(C(F)(F)F)c2)C[C@@H]1CC1=NCCc2cc(F)ccc21
-25%	COc1ccc(C2(C(=O)N3CCC4(CCCN(C)C4=O)C3)CCCC2)cc1 (configuration not stated)
4%	O=C(Cc1cccs1)N1CC2CC(C1)[C@H]1CCCC(=O)N1C2 (some centres not stated)
-26%	COc1ccccc1-c1nc(COC(=O)C2=CN(Cc3ccccc3)S(=O)(=O)N=C2C)no1
5%[70.6 µM]	COc1ccccc1-c1cnc(NC(=O)c2cccnc2)c2c1CCO2
1%	COc1ccc(C(=O)N2CCC3(CC2)OCC(C(=O)NC(C)C)N3C(=O)c2ccccc2)cc1OC (configuration not stated)
1%[70.6 µM]	COc1cncc(N2C[C@H]3[C@H](C2)[S+](=O)([O-])C(C)(C)C(=O)N3Cc2ccccc2)c1

Not all compounds are listed; the hit share may differ from the screen's.
